Env fusion inh: inhibitors of HIV-1 Env-driven cell-cell fusion, primary screen, HeLa-JRFL effector, CEM21 target cells, luciferase | inhibition, % at 12.3 µM | 360,000 compounds, 1.1% hits;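 active = mean replicate inhibition score of at least 50 and every replicate individually at or above 50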;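 note: 0% = plate neutral controls and 100% = maraviroc near 300 nM; one replicate is shown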
MT1-MMP act inh: blockers of MT1-MMP proenzyme processing, primary screen, HT1080 RFP-PRO-GFP cells, GFP/RFP fluorescence; Matrix metalloproteinase-14 (Homo sapiens), P50281; GFP/RFP ratio fluorescence, overnight; percent of plate control window, DMSO zero; GFP/RFP ratio change, % at 20 µM; 360,000 compounds, 0.061% hits; AID 651647, 2012;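 active = GFP/RFP ratio change of at least 30% with cell ATP level not reduced by more than half and red fluorescence within 50% of control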; note: strong numbers were not always called active
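Test system: HT1080 cells expressing an RFP-PRO-GFP fluorescent reporter construct / Compound dosing: single-point 20 µM compound, 1% DMSO / Schedule: cells overnight before dosing, compound overnight, 37 °C, 5% CO2 / Evaluation: GFP/RFP fluorescence ratio / Control set: DMSO and RFP-L50D-GFP cell wells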
Rce1 inh: yeast Rce1p protease inhibitors, primary screen, biochemical, fluorescence, cell-free homogeneous | CAAX prenyl protease 2 (Saccharomyces cerevisiae (strain ATCC 204508 / S288c)), Q03530 | yeast membranes, quenched prenylated peptide cleavage fluorescence | calls only | 290,000 compounds, 0.27% hits;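 active = fall in fluorescence gain of 50% or more versus controls, with final raw signal at or below 3038400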;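 note: plate controls were neutral control wells for no effect and wells lacking membranes for full effect; tested at 10 µM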
Target sequence (Q03530 whole entry, looked up): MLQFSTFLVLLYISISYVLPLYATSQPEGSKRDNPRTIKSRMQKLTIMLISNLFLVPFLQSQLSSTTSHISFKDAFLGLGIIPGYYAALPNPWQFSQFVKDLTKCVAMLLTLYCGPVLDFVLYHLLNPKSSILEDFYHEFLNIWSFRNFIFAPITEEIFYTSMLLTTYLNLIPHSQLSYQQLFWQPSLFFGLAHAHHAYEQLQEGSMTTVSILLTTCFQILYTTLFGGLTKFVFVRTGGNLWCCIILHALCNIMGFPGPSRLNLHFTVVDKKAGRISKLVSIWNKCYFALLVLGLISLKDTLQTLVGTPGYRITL
PABP polyA inh: PABP poly(A) RNA binding inhibitors, primary screen, biochemical, fluorescence polarization, uHTS; 290,000 compounds, 1% hits; inhibition, % at 35 µM; Polyadenylate-binding protein 1 (Homo sapiens), P11940; AID 2014, 2009;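 active = 50% or more with normal probe brightness, or confirmed in later tests; about a fifth of its hits are not listed in these tables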;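 note: calls also rest on retests at 20 µM and on dose response follow-up; controls were probe without protein and protein plus probe with vehicle; some compounds called inactive have numbers as strong as hits; many hits fall short of the cut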
eIF4H inh: human eIF4H binding inhibitors, primary screen, translation initiation inhibitor project, biochemical, uHTS, fluorescence polarization | Eukaryotic translation initiation factor 4H (Homo sapiens), Q15056 | eIF4H fluorescence polarization binding assay | inhibition, % at 35 µM | 290,000 compounds, 0.94% hits | AID 2012, 2009;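 active = 50% or more with normal probe brightness, or confirmed in later tests; about a fifth of its hits are not listed in these tables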;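 note: calls also rest on retests at 20 µM and on dose response follow-up; 0% = protein and probe with vehicle and 100% = probe without protein; strong numbers were not always called active; many hits fall short of the cut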
CSC inhib: cancer stem cell viability inhibitors, primary screen, luminescence | cancer stem cell-like cells viability | inhibition, % at 7.5 µM | 300,000 compounds, 1.1% hits | AID 2717, 2010;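 active = mean at 75% or more and at least half the replicates too; tested in HMLE shEcad cells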;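 note: 0% = median of negative and 100% = median of positive control wells; the first replicate is given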
UUG fidelity: modulators of yeast start codon fidelity, primary screen, whole organism, S. cerevisiae, single point, plate reader; S. cerevisiae UUG-firefly luciferase reporter, luminescence/redox ratio; activity score, % at 18.7 µM; 350,000 compounds, 0.13% hits; AID 602363, 2012;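 active = replicate mean at a twofold rise or more, about +100% in these data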;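 note: firefly luciferase made from a UUG start codon reports start codon fidelity; reporter light over untreated wells divided by growth signal over untreated wells; some hits fall short of that in this replicate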
eIF4H inh retest: also measured in eIF4H inh; calls as there; inhibition, %; compound at 20 µM; confirmation average;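 mean of two retest wells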
PABP polyA inh retest: recorded beside PABP polyA inh, whose call it bears; inhibition, %; compound at 20 µM; confirmation repeats;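 mean of two retest wells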
MT1-MMP act inh RFP: further read-out of MT1-MMP act inh, marked with its call; RFP signal change, %; measured here: RFP expression control read;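 0 = vehicle wells; hits needed this value within 50% of zero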
* marks the source's active call; other numbers are inactive results; i = inactive; . = no result given. Some of the compounds tested. The share of hits here may be higher or lower than overall.

SMILES | Env fusion inh | MT1-MMP act inh | MT1-MMP act inh RFP | Rce1 inh | PABP polyA inh | eIF4H inh | CSC inhib | UUG fidelity | others
CCCCn1c(N)c(N(CCOC)C(=O)c2cccc(N3C(=O)c4ccccc4C3=O)c2)c(=O)[nH]c1=O | -11 | 4 | 2 | i | . | . | -3 | -8
CC(C)C(O)(C#CCN1CCCCC1)C(C)C | -16 | 6 | 8 | i | 8 | 6 | -20 | .
Cc1ccccc1C(=O)Nc1ccc(C(=O)NNC(=O)CCCOc2ccc(Cl)cc2Cl)cc1 | -6 | 5 | 4 | i | 2 | 2 | -4 | -13
O=Nc1c(O)n(Cc2cccc(Cl)c2)c2ccccc12 | -37 | -5 | -1 | i | -1 | 10 | 2 | 12
COCCCNC(=O)c1cc(-c2cccnc2)nc2ccc(S(=O)(=O)N3CCCCCC3)cc12 | -2 | -4 | 2 | i | -3 | -6 | -3 | -8
O=C(COc1cccc2c1CCN(Cc1ccc(Br)cc1)C2=O)NCc1ccco1 | 32 | 4 | -5 | i | -9 | 2 | 29 | .
Cc1ccc2oc(=O)c3cnn(CC(=O)NCCN(C)C)c3c2c1 | 33 | 9 | 6 | i | 5 | -5 | 0 | -20
CCn1nnnc1SCC(=O)Nc1ccc(F)cc1 | -5 | 0 | 0 | i | -1 | -4 | . | -11
O=S1(=O)CCC(NS(=O)(=O)/C=C/c2ccccc2)C1 (centres undefined) | -14 | -2 | 5 | i | 7 | -1 | -9 | .
CN(C)/C=N/C(=S)Nc1ccc(Cl)c(Cl)c1 | -24 | 3 | 5 | i | 1 | 3 | -6 | -13
Cc1ccc(-n2c(SCC(=O)Nc3cccc(C)c3)nc3c(oc4ccccc43)c2=O)cc1 | -27 | . | . | i | -19 | -14 | . | .
Cc1nc(N2CCOCC2)nc(N2CCN(c3ccccc3)CC2)c1[N+](=O)[O-] | . | -2 | 5 | i | 1 | -4 | 11 | 1
Cc1oc(C(=O)O)cc1COc1cccc2cccnc12 | . | -1 | -4 | i | 16 | 92* | -7 | . | eIF4H inh retest=96*;PABP polyA inh retest=36
COc1ccc(N2CCN(C(=O)CC(NC(N)=O)c3cccc(Oc4ccccc4)c3)CC2)cc1 (centres undefined) | -117 | 4 | -6 | i | 0 | 7 | -11 | -2
COc1cc(C2C(C#N)=C(N)N(N(C)C)C3=C2C(=O)CCC3)ccc1O (centres undefined) | 6 | -1 | 4 | i | 16 | 2 | -4 | -13
CCOC(=O)c1c(NC(=O)COC(=O)c2cc(OC)c(OC)cc2[N+](=O)[O-])sc(C)c1C | 5 | 6 | 4 | i | 0 | 2 | -2 | .
Cc1ccc(C)c(NC(=O)CCN2C(=O)c3ccccc3C2=O)c1 | -16 | 0 | 2 | i | 2 | 8 | -6 | -3
S=c1[nH]nc(/C=C/c2ccccc2)o1 | -2 | 0 | 5 | i | -9 | 2 | -17 | .
O=C(Oc1cccc2ccccc12)c1cc(Cl)nc2ccccc12 | 14 | -3 | 1 | i | -7 | 4 | 25 | .
COc1cccc(CSc2nc3sc(C)c(C)c3c(=O)n2Cc2ccco2)c1 | 32 | -4 | -7 | i | 10 | -3 | 14 | -15

Looked up by structure from above:
SMILES | Env fusion inh | MT1-MMP act inh | MT1-MMP act inh RFP | Rce1 inh | PABP polyA inh | eIF4H inh | CSC inhib | UUG fidelity | others
Cc1ccccc1C(=O)Nc1ccc(C(=O)NNC(=O)CCCOc2ccc(Cl)cc2Cl)cc1 | -6 | 5 | 4 | i | 2 | 2 | -4 | -13
CCn1nnnc1SCC(=O)Nc1ccc(F)cc1 | -5 | 0 | 0 | i | -1 | -4 | . | -11
CC(C)C(O)(C#CCN1CCCCC1)C(C)C | -16 | 6 | 8 | i | 8 | 6 | -20 | .
Cc1ccc2oc(=O)c3cnn(CC(=O)NCCN(C)C)c3c2c1 | 33 | 9 | 6 | i | 5 | -5 | 0 | -20

Remaining list, next part
SMILES | Env fusion inh | MT1-MMP act inh | MT1-MMP act inh RFP | Rce1 inh | PABP polyA inh | eIF4H inh | CSC inhib | UUG fidelity | others
Cc1cc(C)n2nc(CC#N)c(C#N)c2n1 | 14 | 0 | 0 | i | -12 | 1 | 18 | .
C=CCn1c(SCC(=O)Nc2cccc(S(N)(=O)=O)c2)nc2sc(C)c(C)c2c1=O | . | 5 | -1 | . | . | . | 18 | -16
CCOc1ccc(C(C)=O)cc1Cn1c(=O)oc2ccccc21 | 11 | -2 | -9 | i | -1 | -11 | -6 | -20
Cn1nccc1C(=O)N1CCN(c2ncccn2)CC1 | -78 | -4 | 0 | i | -4 | -4 | -21 | .
O=C(NN1CCOCC1)c1ccc(Br)cc1 | -6 | 4 | 2 | i | . | . | -4 | -23
O=S(=O)(NCC1NCCc2ccccc21)c1ccccc1 (centres undefined) | 25 | 1 | 3 | i | 7 | -4 | -2 | .
COC(=O)c1ccc(S(=O)(=O)N2CCCN(Cc3cccc(Br)c3F)CC2)n1C | 4 | -3 | -29 | i | -10 | -11 | 5 | -18
Cc1ccc(C(=O)C2=C(O)C(=O)N(Cc3cccnc3)C2c2ccc(OC(C)C)cc2)o1 (centres undefined) | 6 | 4 | -2 | i | 17 | -2 | 5 | -26
COCCCN(C(=O)CCSc1ccc(F)cc1)c1c(N)n(Cc2ccccc2)c(=O)[nH]c1=O | -7 | -2 | 0 | i | . | . | -3 | .
Cc1nnc(SCC(=O)Nc2cc(S(=O)(=O)N3CCOCC3)ccc2N2CCCC2)s1 | 0 | -4 | 5 | . | . | . | . | -25
CC(=O)Nc1nc(C)c(-c2csc(Nc3ccc(O)cc3)n2)s1 | . | 1 | -13 | . | 8 | 13 | . | -7
C=CCn1c(Cc2nc3ccc(Cl)cc3[nH]2)n[nH]c1=S | -49 | -2 | -2 | . | 7 | -16 | -3 | -33
CSc1nc(-c2ccco2)nn1C(=O)Cc1ccccc1 | -67 | -3 | 5 | i | 10 | 2 | -18 | -18

Taken from above (2 entries):
SMILES | Env fusion inh | MT1-MMP act inh | MT1-MMP act inh RFP | Rce1 inh | PABP polyA inh | eIF4H inh | CSC inhib | UUG fidelity | others
COCCCN(C(=O)CCSc1ccc(F)cc1)c1c(N)n(Cc2ccccc2)c(=O)[nH]c1=O | -7 | -2 | 0 | i | . | . | -3 | .
Cc1nnc(SCC(=O)Nc2cc(S(=O)(=O)N3CCOCC3)ccc2N2CCCC2)s1 | 0 | -4 | 5 | . | . | . | . | -25
